Compound activity from PubChem.
MT1-MMP act inh: inhibitors of human MT1-MMP activation. HT1080 RFP-PRO-GFP cells, GFP/RFP ratio fluorescence, overnight; percent of plate control window, DMSO zero. GFP/RFP ratio change, % at 20 µM. 360,000 tested, 0.061% active;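 active = GFP/RFP ratio change of at least 30% with cell ATP level not reduced by more than half and red fluorescence within 50% of control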; note: strong numbers were not always called active
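Material – HT1080 RFP-PRO-GFP cells · Control set – DMSO wells and RFP-L50D-GFP cells · Incubation – overnight cell settling, then overnight compound exposure, 37 °C, 5% CO2 · Compound dosing – single-point 20 µM compound, 1% DMSO · Read-out – GFP/RFP fluorescence ratio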
UUG fidelity: yeast start codon fidelity modulation; S. cerevisiae UUG-firefly luciferase reporter, luminescence/redox ratio; activity score, % at 18.7 µM; 350,000 tested, 0.13% active;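 active = replicate mean at a twofold rise or more, about +100% in these data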;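 note: firefly luciferase made from a UUG start codon reports start codon fidelity; reporter light over untreated wells divided by growth signal over untreated wells; some hits fall short of that in this replicate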
MT1-MMP act inh RFP: also measured in MT1-MMP act inh; calls as there; RFP signal change, %; measured here: RFP expression control read;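 0 = vehicle wells; hits needed this value within 50% of zero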
* hit, by the source's call; & = joins results of further samples.

Results follow in this order: MT1-MMP act inh | MT1-MMP act inh RFP | UUG fidelity
CC1CCCCC12NC(=O)N(CC(=O)OCc1cccc(F)c1)C2=O (configuration not stated)
    0 | 3 | -4
Cc1cccc(NC(=O)CN(C)C(=O)C2CCCC2)c1C
    0 | -1 | -15
COc1ccc(C(NC(=O)C2CCN(Cc3ccc(Oc4ccccc4)cc3)CC2)c2ccccn2)cc1 (configuration not stated)
    0 | -5 | -13
COc1cccc(NC(=O)COC(=O)c2ccccc2C(=O)N(C)c2ccccc2)c1
    0 | -8 | -19
Cc1ccc(NC(=O)C(c2ccccc2)N2CCN(CC(=O)NC3CC3)CC2)cc1Cl (configuration not stated)
    1 | -2 | -9
COc1ccc2oc(C(=O)N3CCN(S(=O)(=O)c4c(C)c(C)cc(C)c4C)CC3)c(C)c2c1
    -9 | -6 | -2
CC1=C(C(=O)N(C(C)C)C(C)C)CC(CC(=O)NCc2cccs2)C(=O)N1Cc1ccc(F)cc1 (configuration not stated)
    1 | 4 | 4
Cc1ccc(C(=O)NCC(=O)NC2CCC(C)CC2)s1 (configuration not stated)
    1 | 2 | -7
CC(C)(C)c1ccc(C(=O)N2CCC2(C)C(=O)NCCC#N)cc1 (configuration not stated)
    2 | 2 | -17
COc1ccc(CC(=O)OCC(=O)N2CCc3ccccc32)cc1OC
    -1 | 6 | -9
CC(C)(C)Cc1c(-c2ccc(Br)cc2)nc2ccc(Br)cn12
    -11 | -10 | 8
COc1ccc(NC(=O)CN(C)C(=O)c2cccc(S(=O)(=O)Nc3ccc(F)cc3)c2)cc1
    6 | 0 | -4
O=C(O)c1ccccc1C(=O)c1cccc2c(F)cccc12
    0 | 3 | -9
COc1ccc(Cl)cc1NC(=O)CN(C)C(=O)CCNC(=O)c1ccccc1OC
    -1 | -4 | 2
O=C(NCc1nnnn1-c1ccc(Cl)cc1)C(=O)c1c[nH]c2ccccc12
    0 | 0 | -5
O=C(CN1C(=O)NC(c2ccccc2)(c2ccccc2)C1=O)NC1CCCCC1
    0 | 4 | 5
COCCN(C(=O)CCN1C(=O)C2CC=CCC2C1=O)c1c(N)n(CC(C)C)c(=O)[nH]c1=O (configuration not stated)
    4 | 2 | -7
COc1cccc(/C=C/C(=O)OCC(=O)c2ccc(C)c(C)c2)c1OC
    1 | 3 | -23
CC1(C(=O)NS(=O)(=O)c2cccc(C#N)c2)CCN1C(=O)c1ccccc1 (configuration not stated)
    -2 | 5 | -22
Cc1noc(C)c1COc1ccc(C(=O)N(C)CCOc2ccccc2)cc1
    1 | -3 | 10
Cc1c(Br)cnn1C(C)C(=O)N1CCN(c2ccc(F)cc2)CC1 (configuration not stated)
    4 | 1 | -9
O=C(COC(=O)c1cccc(Cl)c1)Nc1cc(S(=O)(=O)N2CCOCC2)ccc1N1CCOCC1
    -4 | -2 | 12
COc1ccc(S(=O)(=O)N2CCOCC2)cc1NC(=O)CCNC(=O)c1ccc(Cl)cc1
    2 | -6 | -5
O=C(NC(c1ccccc1)c1cnccn1)C1CCN(CCCOc2ccccc2)CC1 (configuration not stated)
    0 | 1 | 10
O=C(Cc1c[nH]c2ccccc12)N1CCN(S(=O)(=O)c2ccc(Cl)cc2)CC1
    -2 | 1 | 1
Cc1ccc(CN2CC(C(=O)NC3CCCC(C)C3C)CC2=O)cc1 (configuration not stated)
    1 | 0 | -5
CC(C)Oc1ccc(F)cc1-c1cc(C(=O)Nc2ccccc2)[nH]n1
    -1 | -9 | -15
COC(=O)c1ccc2cn[nH]c2c1
    -5 | 5 | -22
Cc1ccc(NC(=O)CNc2ccccc2N2CCCC2=O)cc1S(=O)(=O)N1CCCCC1
    5 | -8 | -3
CN=C1N(C)C[C@@H]2[C@@H]3C(=O)N(C)C(=O)[C@@H]3[C@](Cc3ccccc3)(C(=O)OC)N12
    1 | 4 | -2
Cc1noc(C)c1COc1ccccc1C(=O)N1CCN(S(=O)(=O)c2ccc(F)c(F)c2)CC1
    6 | 3 | -2
O=C(C(=O)N(Cc1ccccc1)Cc1ccccc1)c1c(-c2ccccc2)[nH]c2ccccc12
    -31 | -13 | -11
O=C(CC(=O)OCc1ccccc1)OCc1ccccc1
    7 | 6 | -6
N#Cc1ccc(NC(=O)COC(=O)c2ccc(F)c(S(=O)(=O)N3CCOCC3)c2)cc1
    15 | -1 | -8
Nc1nnc(SCC(=O)Nc2nnc(-c3ccccc3)o2)s1
    0 | 5 | -11
O=C1NCCN(CC2CCN(CCc3ccccc3)CC2)C1=O
    7 | 9 | -21
CCC1Nc2ncnc(N3CCOCC3)c2N(Cc2ccc(Cl)cc2)C1=O (configuration not stated)
    -14 | -9 | 5
COc1cc(C(=O)NNC(=O)C2CSC3(C)CCC(=O)N23)cc(OC)c1OC (configuration not stated)
    1 | 3 | -12
CCN(Cc1nc2ccccc2c(=O)[nH]1)C(=O)COc1ccccc1-c1ccccc1
    2 | 0 | -13
CN(CC(=O)Nc1ccccc1Cl)C(=O)c1ccc(N2CCCCCC2)c([N+](=O)[O-])c1
    9 | -7 | -8
Nn1c(SCC(=O)Nc2nccs2)nnc1-c1cccnc1
    2 | 3 | -5
ON(CCc1ccccn1)CCc1ccccn1
    -3 | 5 | -19
C=CCN(CC=C)Cc1c(O)ccc2c1oc(=O)c1ccccc12
    1 | -1 | 76
CN(c1ccc(OCC(=O)OCC(=O)Nc2ccc([N+](=O)[O-])cc2)cc1)S(=O)(=O)c1cccs1
    -3 | -1 | -13
Cn1c(SCC(=O)NCC2CCCO2)nnc1-c1ccco1 (configuration not stated)
    -3 | 2 | -9
COc1cc(-c2noc(C)c2C(=O)NCC[C@@H]2CCCN2C)cc(OC)c1OC
    -2 | 6 | 2
O=C(c1ccccc1)n1c2ccccc2c(=O)n1-c1ccccc1CCl
    3 | 0 | -6
c1coc(CSSCc2ccco2)c1
    -4 | 4 | -17
CC(C)N(Cc1nnc(-c2ccc(Cl)cc2)o1)C(=O)c1cc2ccccc2o1
    0 | 0 | -6
CC1=C(C(=O)N2CCOCC2)CC(CC(=O)NCc2cccc3ccccc23)C(=O)N1Cc1ccc(C(C)(C)C)cc1 (configuration not stated)
    3 | -2 | 6
CCN(c1ccccc1)S(=O)(=O)c1cc(C(=O)OCC(=O)c2c(N)n(C)c(=O)n(C)c2=O)ccc1C
    -7 | -14 | -7
O=C(/C=C/[C@H]1O[C@@H](n2ccc(=O)[nH]c2=O)[C@H](O)[C@@H]1O)NCCN1CCCC1
    2 | 2 | -9
O=C(C[C@H]1C(=O)N(c2ccccc2)C[C@@H]1Cc1ccccc1)Nc1ccccc1
    2 | 4 | -18
COc1cccc(C(O)c2nc(-c3ccc(OC)nc3)cs2)c1 (configuration not stated)
    2 | -10 | -7
Cc1ccc(-c2csc3ncnc(N4CCN(S(=O)(=O)c5cccs5)CC4)c23)cc1
    -9 | -2 | -26
O=S(=O)(Nc1cc(S(=O)(=O)N2CCOCC2)ccc1NCC1CCCO1)c1ccc(F)cc1 (configuration not stated)
    -2 | 1 | 6
CC[C@H]1C=C[C@@H](C(C(=O)OC)C(=O)OC)CN1C(C)=O
    1 | 3 | -16
O=C(O)CSc1ccc(S(=O)(=O)N2CCCC2)cn1
    -3 | 4 | 1
Cc1ccc(C)c(N2CCN(C(=O)CCc3nc(-c4ccccc4C)no3)CC2)c1
    1 | 0 | -18
N#CC1(NC(=O)COC(=O)C2=COCCO2)CCCCC1
    0 | 5 | -8

Further entries follow:
smiles	MT1-MMP act inh	MT1-MMP act inh RFP	UUG fidelity
CC(=O)c1cccc(OCC(=O)N(CCC2=CCCCC2)c2c(N)n(Cc3ccccc3)c(=O)[nH]c2=O)c1	-3	-4	-5
CCN(CC(=O)Nc1ccc2c(c1)OCCO2)C(=O)c1ccc(CS(C)(=O)=O)cc1	-2	1	-7
O=C(Cn1nnc(-c2ccccc2)n1)NC(=O)NC1CCCC1	-2	2	-12
CC1(C)CC(=O)C(c2ccccc2)(c2ccccc2)C(=O)C1	-2	-1	-3
CC(C)N(C(=O)[C@H]1C[C@H](CC(=O)NCCN2CCOCC2)C(=O)N2CCc3c([nH]c4cc(-c5ccco5)ccc34)[C@]12C)C(C)C	-1	2	5
C[C@@H]1CN([C@@H](C)CO)C(=O)CCCn2nncc2CO[C@H]1CN(C)S(=O)(=O)c1ccccc1F	1	11	-3&-9
CC12CCC(=O)C=C1CCC1C2C(O)CC2(C)C1CCC2(O)C(O)CO (configuration not stated)	9	6	0
O=S1(=O)c2ccc(Br)cc2N2CC[C@H](C2)N1Cc1ccc(Cl)cc1	-8	-20	-8
C#CCOCCOCCOCCNc1nc(N2CCN(C(=O)C([C@@H](C)O)n3cc([C@@H](N)CCCCN)nn3)CC2)nc(N2CCN(C(=O)C([C@@H](C)O)n3cc([C@@H](N)CCCCN)nn3)CC2)n1 (some centres not stated)	1	5	39
CC(=O)Nc1ccc(C(=O)N2CCCCC2c2cc(C(=O)Nc3ccccc3Cl)no2)cc1 (configuration not stated)	4	2	0
CCC1([N+](=O)[O-])COC(C=Cc2ccccc2)OC1 (configuration not stated)	3	5	-15
CCCOc1ccc(NC(=O)CC2C(=O)Nc3ccccc3N2CC(=O)N2CCCC2)cc1 (configuration not stated)	0	-5	2
CN(CC(=O)Nc1cccc(F)c1)C(=O)CCN1C(=O)C2CC=CCC2C1=O (configuration not stated)	5	0	-6
COc1ccc(-c2csc(C(O)c3ccccc3)n2)cn1 (configuration not stated)	0	-1	0
CN(C)CCNC(C(=O)Nc1cccc(S(=O)(=O)N2CCOCC2)c1)c1ccccc1 (configuration not stated)	0	1	-10
CC(C)Oc1ccc(F)cc1-c1cc(C(=O)NCc2cccs2)[nH]n1	-7	-11	-13

Nothing new here: an excerpt of the list.
smiles	MT1-MMP act inh	MT1-MMP act inh RFP	UUG fidelity
O=S1(=O)c2ccc(Br)cc2N2CC[C@H](C2)N1Cc1ccc(Cl)cc1	-8	-20	-8
C#CCOCCOCCOCCNc1nc(N2CCN(C(=O)C([C@@H](C)O)n3cc([C@@H](N)CCCCN)nn3)CC2)nc(N2CCN(C(=O)C([C@@H](C)O)n3cc([C@@H](N)CCCCN)nn3)CC2)n1 (some centres not stated)	1	5	39
CC(=O)Nc1ccc(C(=O)N2CCCCC2c2cc(C(=O)Nc3ccccc3Cl)no2)cc1 (configuration not stated)	4	2	0
CCC1([N+](=O)[O-])COC(C=Cc2ccccc2)OC1 (configuration not stated)	3	5	-15
CCCOc1ccc(NC(=O)CC2C(=O)Nc3ccccc3N2CC(=O)N2CCCC2)cc1 (configuration not stated)	0	-5	2
CN(CC(=O)Nc1cccc(F)c1)C(=O)CCN1C(=O)C2CC=CCC2C1=O (configuration not stated)	5	0	-6

The list continues:
smiles	MT1-MMP act inh	MT1-MMP act inh RFP	UUG fidelity
O=C(COC(=O)C1CC1)Nc1ccc(Cl)cc1Cl	-9	-2	-16
CC(=O)Nc1sc(C)c(C)c1C(=O)OCC(=O)Nc1ccccc1	-4	-1	-4
CSCCC(NC(=O)c1cc(S(=O)(=O)N2CCOCC2)ccc1C)c1nc2ccccc2[nH]1 (configuration not stated)	-2	0	-15
CC(C)C(=O)Nc1ccc(C(=O)CN2C(=O)NC3(CCOc4ccccc43)C2=O)cc1 (configuration not stated)	-2	4	-14
COc1cc2ccc(CC(N)=O)cc2cc1OC	1	1	1
Cc1ccn2cc(C(=O)N3CCN(c4cnn(-c5ccccc5)c(=O)c4Cl)CC3)nc2c1	1	6	-14
Cc1cc(Cl)c(C)c(S(=O)(=O)N2CCN(C(=O)C3CCCO3)CC2)c1Cl (configuration not stated)	8	-3	2
Cc1ccc(N(C)S(=O)(=O)c2cccc(C(=O)Nc3ccc(N4CCOCC4)cc3)c2)cc1	-8	-19	-16
COCCN(C(=O)C1CC(=O)N(Cc2ccc(C)cc2)C1)c1c(N)n(CC(C)C)c(=O)[nH]c1=O (configuration not stated)	-1	2	26
CCC(C)C(N)C1=NC(C(=O)N[C@@H](CC(C)C)C(=O)N[C@H](CCC(=O)[O-])C(=O)N[C@H](C(=O)N[C@H]2CCCCNC(=O)[C@H](CC(N)=O)NC(=O)[C@@H](CC(=O)[O-])NC(=O)[C@H](Cc3cnc[nH]3)NC(=O)[C@@H](Cc3ccccc3)NC(=O)[C@H]([C@@H](C)CC)NC(=O)[C@@H](CCCN)NC2=O)[C@@H](C)CC)CS1.[Zn+2] (some centres not stated)	1	7	-1
O=C(O)c1ccccc1NS(=O)(=O)c1cccc(N=Nc2c(O)[nH]c(=S)[nH]c2=O)c1	6	1	-12
CC1(C)CC(=O)C=C(c2ccc(COC(=O)c3cccc(C(F)(F)F)c3)cc2)C1=O	-2	-3	10
Cc1ccc2nc(-c3ccco3)c(Cc3cccc(Cl)c3)n2c1	-2	-12	-11
O=C(NNC(=O)c1ccc(Cl)cc1Cl)c1ccc2ccccc2c1	3	-2	-12
CCC(=O)N1CCCC1(C)C(=O)Nc1ccc(C)c(C)c1 (configuration not stated)	2	5	-16
CC[C@]1(C(=O)OC)[C@H]2C(=O)N(Cc3ccccc3)C(=O)[C@H]2[C@H]2CN(C)C(=NC)N21	-1	2	-14
CCN(CC(=O)Nc1cc(S(=O)(=O)N2CCOCC2)ccc1Cl)Cc1ccccc1	-7	-21	-5
CS(=O)(=O)c1ccc(C(=O)CN2C(=O)NC3(CCCc4ccccc43)C2=O)cc1 (configuration not stated)	-1	4	-9

Laid out differently: entries from further up
CCC(=O)N1CCCC1(C)C(=O)Nc1ccc(C)c(C)c1 (configuration not stated)
  MT1-MMP act inh: 2 | MT1-MMP act inh RFP: 5 | UUG fidelity: -16
CC[C@]1(C(=O)OC)[C@H]2C(=O)N(Cc3ccccc3)C(=O)[C@H]2[C@H]2CN(C)C(=NC)N21
  MT1-MMP act inh: -1 | MT1-MMP act inh RFP: 2 | UUG fidelity: -14

The list is partial, so the mix of outcomes need not match the whole.
